# Screening results from PubChem BioAssay.
# Choline anaer gr – growth inhibitors of anaerobic choline-fed gram-negatives, minimal medium, absorbance; hit rate 0.2% among 55,000; Gram-negative bacterium anaerobic choline minimal medium; active compounds read low; many inactives read as strong as hits in the columns shown; calls only;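 active = growth z-score on choline under -2 at 7 or 20 h with little or no fall on glycerol, limits in tiers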;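 also: stock transfer was 300 nL into about 50 µL; the organism is E. coli; final concentration not given here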
# Choline anaer gr early – recorded beside Choline anaer gr, whose call it bears; z-score; measured here: choline growth z-score, timepoint 1;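 score of optical density at 7 h as mean of two plates; lower means less growth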
# * = called active by the depositor; i = inactive; & = joins results of further samples. Only part of the results is shown; rates above refer to the full screens.
# Screens in order – Choline anaer gr early | Choline anaer gr
Cc1ccc2c(c1)NC(=O)c1cc(S(=O)(=O)N3CCCCC3)ccc1O2
 : 0.01 | i
Cc1noc(C)c1C1CCCN1Cc1cccc(F)c1F (stereo unspecified)
 : -0.26 | i
O=C(Nc1ccc([N+](=O)[O-])cc1O)Nc1ccccc1Br
 : -1.54&-1.64 | i
Cc1ccc(NS(=O)(=O)c2cc(-c3nc(C(C)C)cs3)cs2)c(Br)c1
 : -0.24 | i
CCOC(=O)c1[nH]c(C)c(S(=O)(=O)NC2CCCC2)c1C
 : -0.27 | i
O=C(CCc1c(-c2ccc(F)cc2)nc2ccccn12)NCCC1=CCCCC1
 : -0.59 | i
O=C(Cn1nc(C(=O)N2CCCC2)ccc1=O)N1CCCC1
 : -0.02 | i
CC(C)Cn1c(=O)c2sccc2n2c(CCC(=O)N3CCC(C(N)=O)CC3)nnc12
 : 0.04 | i
CNC(=O)CCn1ccc2cc(S(=O)(=O)N3CCC(C)CC3)ccc21
 : -1.6 | i
CC(C)NC(=O)CCn1c(=O)c2cc(Cl)ccc2n2c(=O)n(CC(=O)NC3CCCC3)nc12
 : -1.73 | i
O=c1c2cccnc2nc(SCc2cc(=O)n3cc(Cl)ccc3n2)n1CC1CCCO1 (stereo unspecified)
 : -1.1 | i
CC1(C(=O)NCc2ccc3c(c2)OCO3)CCN(C(=O)Nc2ccc(Br)cc2F)CC1
 : -1.37 | i
Cc1[nH]nc2c1C(c1ccc(C(C)(C)C)cc1)N(c1ccc(Br)cc1)C2=O (stereo unspecified)
 : -1.06 | i
CN(C)c1ccc(C(CNC(=O)Cc2ccc(F)cc2)N2CCOCC2)cc1 (stereo unspecified)
 : 0.14 | i
Brc1ccc([C@H]2CN3CCSC3=N2)cc1
 : 0.43 | i
Cn1nccc1C(=O)N1CCC(c2nc(-c3ccc(Cl)cc3)no2)CC1
 : -0.54 | i
Cc1ccc(C)c(N2CCN(C(=O)c3nnc(-c4oc5ccc(C)cc5c4C)o3)CC2)c1
 : 1.16 | i
Cc1nn(C)c2nc(OC(C)C(=O)Nc3ccc(F)cc3)cc(C(F)(F)F)c12 (stereo unspecified)
 : 0.68 | i
CCC(C)NC(=O)c1ccc2c(=O)n(C3CC3)c3n[nH]c(=O)n3c2c1 (stereo unspecified)
 : 1.1 | i
Cc1nn(C(=O)Nc2ccc3c(c2)OCCO3)c2ccccc12
 : 1.43 | i
O=C(C1CCN(c2cnc(N3CCSCC3)nc2)CC1)N1CCOCC1
 : 0.97 | i
CC(C)(C)NC(=O)NC1CCN(C(=O)C2CCCC2)C1 (stereo unspecified)
 : 0.75 | i
Cc1ccc2c(=O)c(C(=O)c3ccc(Cl)cc3)cn(CC(=O)NCC3CCCO3)c2n1 (stereo unspecified)
 : 0.54 | i
COc1ccc(NC(=O)CNS(=O)(=O)c2cc(-c3noc(C)n3)ccc2C)cc1
 : 0.89 | i
CC(C)n1c(SCc2cc(=O)n3ccccc3n2)nc2c(-c3ccccc3)cn(C)c2c1=O
 : -0.48 | i
CN(C)c1oc(-c2ccc(S(=O)(=O)N3CCOCC3)cc2)nc1C#N
 : -0.42 | i
CCSCC1COC(c2cccn2Cc2ccc(Cl)cc2)=N1 (stereo unspecified)
 : 1.28 | i
O=C(c1ccccc1)N1CCCC(C(=O)N2CCC(Cc3ccccc3)CC2)C1 (stereo unspecified)
 : 0.52 | i
COc1cccc(C(=O)NC(/C=C/c2ccccc2)c2cc(Cl)c3cccnc3c2O)c1 (stereo unspecified)
 : 0.66 | i
O=C(CSc1nccnc1N1CCSCC1)Nc1ccc2c(c1)OCCO2
 : -0.05 | i
C=CCn1c(=O)c2ccc(C(=O)NCc3ccc4c(c3)OCO4)cc2n(Cc2c(C)cc(C)cc2C)c1=O
 : 0.34 | i
CCCCCCOC(=O)[C@@]1(O)CC2OC1(C)n1c3ccccc3c3c4c(c5c6ccccc6n2c5c31)C(=O)NC4 (stereo partly specified)
 : 0.21 | i
CCN(CC)S(=O)(=O)c1ccc2c(c1)nc(CN(C)C(=O)NCCc1ccccc1)n2C
 : 0.03 | i
CC(C)c1cc(C2CCCN2C(=O)c2cc(-c3cccs3)on2)on1 (stereo unspecified)
 : -1.79 | i
CCOc1ccc(CNC(=O)C2CCCN2S(=O)(=O)c2cc3c(cc2Cl)NC(=O)CO3)cc1 (stereo unspecified)
 : 0.28 | i
Cc1nc(-c2ccc(C(=O)N3CCC(C)CC3)cc2)cs1
 : -1.48 | i
CCN(CC)C(=O)Cn1c(=O)n(Cc2ccc(C(=O)NC(C)C)cc2)c(=O)c2cc(OC)c(OC)cc21
 : -0.47 | i
O=[N+]([O-])O[C@@H]1CO[C@H]2[C@@H]1OC[C@@H]2O
 : 0.84 | i
C=CCSc1nc2sc(C)c(C)c2c(=O)n1-c1ccccc1
 : 0.6 | i
Cc1ccc(NCc2cccn2-c2nnc(N3CCN(c4ccccc4)CC3)s2)cc1
 : -0.37 | i
CN1C(C(=O)NCCCc2ccccc2)=C(c2ccccc2)c2cc(Cl)ccc2S1(=O)=O
 : 0.74 | i
CC(C)CCNC(=O)C1(c2ccc(NS(=O)(=O)c3ccc(C(C)C)cc3)cc2)CC1
 : -0.25 | i
O=C(NCCN1CCCC1)C1CCN(c2cnc(N3CCCC3)nc2)CC1
 : 1.1 | i
O=C(NCc1ccccc1)c1c(-c2ccccc2)nc2n1CCS2(=O)=O
 : -0.34 | i
CCOC(=O)c1ccc(NC(=O)CSc2nnc(NC(=O)NC3CCCCC3)s2)cc1
 : 0.31 | i
COc1ccc(S(=O)(=O)N2CC(OCc3ccc(C)cc3)C2)cc1OC
 : 1.14 | i
CCOc1ccc(C2c3c(-c4c(C)cc(C)cc4O)n[nH]c3C(=O)N2CC2CCCO2)cc1OCC (stereo unspecified)
 : 0.28 | i
Cc1csc(-n2[nH]c(C)c(CCC(=O)Nc3ccccc3F)c2=O)n1
 : 0.21 | i
Cc1cccc(Cc2cnc(NC(=O)C3=Cc4ccc(C)cc4OC=C3)s2)c1
 : 0.3 | i
NCCS(=O)(=O)O
 : 0.41 | i
COC(=O)C(C)Oc1cc(O)c2c(=O)cc(-c3ccccc3)oc2c1 (stereo unspecified)
 : 0.02 | i
Cc1ccc(-c2noc(Cc3nc(-c4ccccc4)cs3)n2)cc1
 : -0.09 | i
C=CCN1CCN(c2ccc3nnc(CCc4nc(-c5ccccc5OC)no4)n3n2)CC1
 : 0.14 | i
CCOc1cc(CN2CCCC2c2c(C)noc2CC)ccc1OC(C)C (stereo unspecified)
 : 0.03 | i
COc1ccc(Cl)cc1C(=O)NCCc1sc2nc(-c3ccc(C)cc3)nn2c1C
 : 1.33 | i
O=C1[C@@H]2CSC(c3ccc(Cl)cc3)N2C(=O)N1c1ccc(Cl)cc1 (stereo partly specified)
 : 1.67 | i
Cc1ccc(-c2c(C(F)(F)F)nn3c(NCc4cccnc4)cc(C)nc23)cc1
 : -0.44 | i
Cc1cc(NC(C)C)n2nc(Cc3ccccc3)nc2n1
 : 0.51 | i
Cc1nc2nc(CN)nn2c(C)c1CCC(=O)Nc1cccc(Cl)c1
 : 1.26 | i
COc1ccccc1CNC(=O)c1ccc(N2CCCC2)c(NC(=O)Nc2ccccc2Cl)c1
 : 0.77 | i

# 3 compounds from above, ordered by formula weight, ascending.
# Screens in order – Choline anaer gr early | Choline anaer gr
CCOc1cc(CN2CCCC2c2c(C)noc2CC)ccc1OC(C)C (stereo unspecified)
 : 0.03 | i
O=C1[C@@H]2CSC(c3ccc(Cl)cc3)N2C(=O)N1c1ccc(Cl)cc1 (stereo partly specified)
 : 1.67 | i
CCOc1ccc(C2c3c(-c4c(C)cc(C)cc4O)n[nH]c3C(=O)N2CC2CCCO2)cc1OCC (stereo unspecified)
 : 0.28 | i

# New compounds follow.
# Screens in order – Choline anaer gr early | Choline anaer gr
COc1cccc(NC(=O)c2cnc(N(C)C)nc2C)c1
 : 0.19 | i
CCOC(=O)c1[nH]c(C)c(C(=O)N2CCC(C)CC2)c1C
 : 0.07 | i
CNC(=O)C1CCN(c2nc3ncn(CC(=O)NC(C)C)c(=O)c3s2)CC1
 : 0.06 | i
COc1ccc(-c2csc(-c3nc(-c4ccc5c(c4)OCO5)cs3)n2)cc1OC
 : -1.39 | i
Cc1nn(CC(=O)N2CCN(c3ccc(Cl)cc3)CC2)c(=O)c2cccn12
 : 1.28 | i
CCc1nnc(NC(=O)CSc2ccc3nnc(-c4cccc(F)c4)n3n2)s1
 : -1.4 | i
COc1ccc(-n2nc(C(=O)Nc3ccc4c(c3)OCCO4)c(=O)n(C)c2=O)cc1
 : 1.31 | i
Cc1ccc(CNC(=O)C2(C)CCCN(C(=O)c3ccc(Br)cc3)C2)cc1 (stereo unspecified)
 : -0.13 | i
O=C(NCc1nc2cccnc2n1Cc1ccc(F)cc1)c1ccncc1
 : -0.33 | i
O=C(CN1CCN(Cc2ccccc2Cl)S1(=O)=O)Nc1ccccc1
 : -0.06 | i
COc1ccc(-c2nn(CCCC(=O)NCCc3ccc(C)cc3)c(=O)c3noc(C)c23)cc1
 : 1.2 | i
Cc1cc(S(=O)(=O)Nc2noc3ccccc23)ccc1F
 : -0.12 | i
CCOC(=O)C1CCN(C(=O)CS(=O)Cc2cnn(-c3ccccc3)c2-n2cccc2)CC1 (stereo unspecified)
 : -1.33 | i
C=CCn1c(=O)c2cnc(-c3ccc(Cl)cc3)nc2n(CC)c1=O
 : -1.04 | i
CC(C)Cn1c(=O)c(=O)[nH]c2cc(-c3noc(-c4cccc5[nH]ccc45)n3)ccc21
 : 2.25 | i
Cc1nc(-c2cccc(C(=O)N3CCc4ccccc43)c2)no1
 : -1.35 | i
O=C(Cn1c(=O)c(=O)n(Cc2ccncc2)c2ncccc21)NCCN1CCCCC1
 : 0.64 | i
O=c1c2ccccc2nc2n1CCC2O (stereo unspecified)
 : 0.66 | i
CC(C)c1cc(C2CCCN2C(=O)Nc2ccccc2)no1 (stereo unspecified)
 : -0.26 | i
CCOc1ccc(NC(=O)CSc2nc3ccccc3nc2N2CCC(C)CC2)cc1
 : 0.57 | i
CCn1ccc2cc(S(=O)(=O)N3CCCN(C(=O)Nc4ccccc4OC)CC3)ccc21
 : 0.09 | i
CCOC(=O)c1cnc(SC(C)C(=O)Nc2ccc3c(c2)OCCO3)nc1N (stereo unspecified)
 : 0.37 | i
O=C(NCc1ccccc1)Nc1ccc(-c2nc(-c3cccc(Br)c3)co2)cc1
 : -0.58 | i
CCCCNC(=O)c1cnc(N(C)C)nc1C
 : -0.51 | i
O=C(c1[nH]c2ccccc2c1Sc1ccc(Cl)cc1)N1CCN(c2ccccn2)CC1
 : 1.6 | i
NC(=O)c1ccc2c(c1)OCCCO2
 : -1.92 | i
Cc1ccc(CNC(=O)Nc2cccc(CCc3nc4ccccc4n3C)c2)cc1
 : 0.86 | i
COc1ccc(-c2nc3c4c(C)c(C)n(-c5cccc(C)c5)c4ncn3n2)cc1OC
 : -0.2 | i
CCCCCCCCCCCCC(O)C(=O)O (stereo unspecified)
 : 1.25 | i
Fc1ccc(CNC(c2ccc(Br)cc2)c2nnc(-c3ccccc3)o2)cc1 (stereo unspecified)
 : 1.07 | i
Cc1cc(C)cc(N2C(=O)CN(Cc3ccc4c(c3)OCO4)[C@H]3CS(=O)(=O)C[C@H]32)c1
 : 1.51 | i
O=S(=O)(c1cc(-c2noc(C3CC3)n2)cs1)N1CC=C(c2ccccc2)CC1
 : 2.78 | i
CCOc1cc(C2C3=C(CC(c4ccccc4)CC3=O)Nc3onc(C)c32)ccc1O (stereo unspecified)
 : -0.91 | i
CCOC(=O)Cc1ccc(NC(=O)N2CCc3c(sc4c3CCCC4)C2c2ccccc2)cc1 (stereo unspecified)
 : 0.69 | i
COc1ccc(NC(=O)N2CCCN(c3ccc(=O)n(-c4ccccc4)n3)CC2)cc1OC
 : 0.99 | i
COC(=O)c1ccc2c(c1)N(Cc1cccc(Cl)c1)C(=O)CS2
 : 0.94 | i
CCOC(=O)c1noc2ncn(C(C)C(=O)N3CCCc4ccccc43)c(=O)c12 (stereo unspecified)
 : 0.38 | i
O=C(CN1c2ccc(Br)cc2-c2ccccc2S1(=O)=O)N1CCc2ccccc2C1
 : -0.91 | i
Cc1occc1-c1nnc(SCC(=O)NCc2ccccc2Cl)o1
 : -0.23 | i
CCCc1c(C)nc2ncnn2c1Sc1ccc(N(C)C)cc1
 : 0.64 | i
Fc1ccc(-c2noc(Cc3nc(-c4cccc(Cl)c4)cs3)n2)cc1
 : 0.68 | i
CC1=Nn2c(nnc2-c2ccc(C)cc2)SC1
 : 1.38 | i
Cc1c(C(=O)O)sc2ncnc(NC3CCCCC3)c12
 : -0.32 | i
Oc1ccc(O)cc1
 : 0.42 | i
O=C(C(=O)N1CCNc2ccccc2C1)c1ccccc1
 : -0.15 | i
COc1ccc(F)cc1-c1cc(N2CCN(C(=O)NC3CCCCC3)CC2)ncn1
 : -0.76 | i
CC1CCN(S(=O)(=O)c2ccc3c(c2)N(CC(=O)N2CCN(c4ccccn4)CC2)C(=O)CO3)CC1
 : 1.14 | i
O=C(Nc1ccccc1Br)N1CCN(Cc2nc3cccnc3n2-c2ccccc2)CC1
 : -0.71 | i
CC(C)CCNC(=O)CN1C(=O)C2CCCC2=Nc2ccccc21 (stereo unspecified)
 : -0.54 | i
CCC(C)n1nnc2cc(S(=O)(=O)N3CCC(C(=O)Nc4cccc(OC)c4)CC3)ccc21 (stereo unspecified)
 : 0.98 | i
Cn1c(=O)n(C)c2cc(S(=O)(=O)Nc3ccc(F)c(F)c3)c(Cl)cc21
 : 0.51 | i
Cc1ccc(S(=O)(=O)NCCc2sc(-c3cccc(F)c3)nc2C)c(C)c1
 : 0.04 | i

# Single records (already shown):
# Cn1c(=O)n(C)c2cc(S(=O)(=O)Nc3ccc(F)c(F)c3)c(Cl)cc21 as listed: Choline anaer gr early = 0.51; Choline anaer gr = i
# Cc1ccc(S(=O)(=O)NCCc2sc(-c3cccc(F)c3)nc2C)c(C)c1 as listed: Choline anaer gr early = 0.04; Choline anaer gr = i
# CC1CCN(S(=O)(=O)c2ccc3c(c2)N(CC(=O)N2CCN(c4ccccn4)CC2)C(=O)CO3)CC1 as listed: Choline anaer gr early = 1.14; Choline anaer gr = i
